Assay outcomes as filed in PubChem.
GIV Gai3 FP = GIV-Galpha-i interaction inhibition; actives 0.42% (n = 210,000); P08753; AID 1224905; Galpha-i3/FITC-GIV peptide fluorescence polarization, 90 min; active compounds read low; scaled: aluminum fluoride 0%, vehicle 100%; percent of control (FP), % (concentration not given with the values);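 active = replicate mean at 85% of control or lower, very high polarization wells dropped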;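 note: wells of about 15 µL received 100 nL stock; the first replicate is given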
Target sequence (P08753 whole entry, looked up): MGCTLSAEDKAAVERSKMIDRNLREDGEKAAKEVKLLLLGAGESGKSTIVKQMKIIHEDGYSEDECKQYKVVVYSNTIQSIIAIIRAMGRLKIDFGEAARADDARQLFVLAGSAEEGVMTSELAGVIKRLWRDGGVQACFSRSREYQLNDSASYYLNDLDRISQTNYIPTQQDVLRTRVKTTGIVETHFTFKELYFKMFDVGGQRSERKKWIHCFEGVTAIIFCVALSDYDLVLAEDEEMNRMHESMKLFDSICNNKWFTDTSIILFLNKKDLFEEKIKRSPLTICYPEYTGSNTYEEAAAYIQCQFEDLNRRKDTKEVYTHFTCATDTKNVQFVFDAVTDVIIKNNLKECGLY
The depositor's hits bear a star. The list is partial (hit frequency here may not be typical).

SMILES	GIV Gai3 FP
CCOC(=O)CC1=C(C(=O)OCC)C(c2ccc(C)cc2)C(C#N)=C(N)O1 (stereo not given)	108
COC(=O)C1=CN(Cc2ccc(OC)cc2)C=C(C(=O)OC)C1c1cc(OC)c(O)c([N+](=O)[O-])c1	96
Cc1ccc(N2C(=O)CC(Sc3ncn[nH]3)C2=O)c(Cl)c1 (stereo not given)	101
COc1nc(C)nc(NC(=O)NC(=O)c2c(Cl)nc(C)c([N+](=O)[O-])c2C)n1	105
COc1ccccc1CNC1=NCCNC12CCN(S(=O)(=O)c1ccccc1)CC2	101
COC(=O)c1cc(C2CC2)nc2c1c(=O)n(Cc1cn3ccccc3n1)c(=O)n2-c1ccccc1	101
COc1ccc(C2CC(c3ccc(Br)cc3)=Nc3ccccc3S2)cc1 (stereo not given)	104
Cc1ccsc1C1CCCCCN1S(=O)(=O)c1ccc(Br)s1 (stereo not given)	102
CC(C)N1C(=O)c2ccccc2Oc2ccc(NC(=O)C3CC(=O)N(c4ccccc4)C3)cc21 (stereo not given)	104
CN1CCN(c2ncncc2N2CCC(C(=O)NC3CCCCCC3)CC2)CC1	96
CCCN1C(=O)c2ccccc2Sc2cc(-c3noc(CCc4c[nH]c5ccccc45)n3)ccc21	103
O=C(c1ccc(C2Nc3ccccc3S(=O)(=O)N2)cc1)N1CCN(c2ccccn2)CC1 (stereo not given)	97
CC(=O)Nc1ccc(N=c2ssc3c2-c2cc(C)c(C)cc2NC3(C)C)cc1	112
COC(=O)C1=C(C)NC2=C(C(=O)CC(c3cccs3)C2)C1c1cc(OC)c(Br)cc1OC (stereo not given)	102
Cc1ccc(C2=NC3(CCNCC3)NC(c3cc(Br)ccc3O)C2)cc1 (stereo not given)	101
CN1C(=O)c2ccc(NC(=O)CCc3nc(CSc4nc5ccc(Cl)cc5[nH]4)no3)cc2C1=O	101
Nc1nonc1-n1nnc(C(=O)N/N=C/c2sc3ccccc3c2Br)c1-c1ccccc1	115
COC(=O)c1ccc(OCc2nc(N)nc(N3CCOCC3)n2)cc1	104
O=C(CSc1nnc(-c2ccncc2)n1Cc1ccccc1)c1cccc([N+](=O)[O-])c1	102
CC1(C)COC2(OC1)C(=O)Nc1ccccc12	114
CC(=O)N1c2ccc(Br)cc2C2(c3ccccc3)N(C(C)=O)c3ccc(Br)cc3C12c1ccccc1 (stereo not given)	109
Cc1ccc(-c2nc3ccccc3c3nnc(SCC(=O)Nc4nccs4)n23)cc1	103
Cc1cccc(Nc2ncnc3c2cnn3C)c1	105
O=C1CC(c2ccccc2Br)c2cnn(-c3ccc(F)cc3)c2N1 (stereo not given)	98
COc1cccc2sc(N3CCN(C(=O)c4ccc5c(c4)OCCO5)CC3)nc12	103
CCc1ccc(S(=O)(=O)n2nnc3ccccc32)cc1	105
CC1CCCN(Cc2cc(=O)[nH]c(C(C)C)n2)C1 (stereo not given)	110
Cc1nn2c(S(=O)(=O)NC3CCCC3)c(C(C)C)nc2s1	96
CCn1cc(C(=O)NCC2CC2)c(S(=O)(=O)N2CCSCC2)n1	99
Nc1ccc2c(c1)S(=O)(=O)c1cc(N)ccc1-2	134

A section taken from the entries so far, as a working copy:
SMILES	GIV Gai3 FP
CN1C(=O)c2ccc(NC(=O)CCc3nc(CSc4nc5ccc(Cl)cc5[nH]4)no3)cc2C1=O	101
Nc1nonc1-n1nnc(C(=O)N/N=C/c2sc3ccccc3c2Br)c1-c1ccccc1	115

The main list resumes, repeating the five entries before the break.
SMILES	GIV Gai3 FP
CCc1ccc(S(=O)(=O)n2nnc3ccccc32)cc1	105
CC1CCCN(Cc2cc(=O)[nH]c(C(C)C)n2)C1 (stereo not given)	110
Cc1nn2c(S(=O)(=O)NC3CCCC3)c(C(C)C)nc2s1	96
CCn1cc(C(=O)NCC2CC2)c(S(=O)(=O)N2CCSCC2)n1	99
Nc1ccc2c(c1)S(=O)(=O)c1cc(N)ccc1-2	134
N#CCCN1CCn2c3c(c4cc(C5CCCCC5)ccc42)CCCC31 (stereo not given)	116
CCN1C(=O)/C(=C2\Sc3ccc(OC)cc3N2C2CCCCC2)SC1=S	102
CCCS(=O)(=O)c1c(S(=O)(=O)CCC)c2cnccn2c1C(=O)c1ccc(OC)cc1	106
CC(=O)Oc1ccccc1-c1nc2s/c(=C3\C(=O)N(CC(N)=O)c4ccccc43)c(=O)n2n1	105
Cc1nc(N2CCN(c3ccccn3)CC2)c2c(C)c(C(=O)NC(C)c3ccccc3)sc2n1 (stereo not given)	102
CCOC(=O)c1cnc2ccccc2c1Nc1cccc(C)c1	103
O=C(CSc1n[nH]c(-c2ccco2)n1)N1CCOCC1	96
O=C1CCCc2oc3ccc(O)cc3c21	107
COc1ccccc1NC(=O)c1sc(=S)n(-c2ccccc2OC)c1N	114
O=C(NCc1cccnc1)C1CCCN(c2ncnc3c2oc2ccccc23)C1 (stereo not given)	100
CCOC(=O)C1CCCN(C(=O)c2sc3ncnc(N4CCc5ccccc5C4)c3c2C)C1 (stereo not given)	113
O=[N+]([O-])c1cccc(S(=O)(=O)Nc2ccc3oc4c(c3c2)CCCC4)c1	116
COc1ccc(-c2cc(Oc3cccc(C(=O)NCc4ccc(Br)cc4)c3)ncn2)cc1	104
CCOC(=O)C1=CN(Cc2ccc(Cl)cc2)C=C(C(=O)OCC)C1c1ccc(O)c(OCC)c1	108
O=C(NC1CCCC1)c1ccc2nc(-c3ccccc3)c(-c3ccccc3)nc2c1	106
CCOc1ccc(N2C(=O)/C(=C/c3c(OC)ccc4ccccc34)C(=O)NC2=S)cc1	110
COc1ccc(-n2c(=O)c3c(n4c(=S)[nH]nc24)-c2ccccc2CC32CCCC2)cc1	122
COC(=O)C1C(=O)NC(SCC(=O)Nc2ccc(Br)cc2)=C(C#N)C1c1ccc(Cl)cc1 (stereo not given)	110
Cc1sc(-c2cc(C(F)(F)F)on2)cc1S(=O)(=O)NCCc1ccc(Cl)cc1	101
Cc1sc2cc(C(=O)N3CCC4(CC3)OCCO4)[nH]c2c1CN1CCCC1	105
OC(CN1CCCCC1)Cn1c2ccc(Br)cc2c2cc(Br)ccc21 (stereo not given)	108
CCOC(=O)c1ccc(N2N=C(C(F)(F)F)/C(=C/c3cc(Cl)c(O)c(OC)c3)C2=O)cc1	109
CC1(C)CC(=O)C2=C(C1)OC1=C(C(=O)CC(C)(C)C1)C2c1cccc([N+](=O)[O-])c1	112
COc1cc(Cl)c(NS(=O)(=O)c2cc(-c3cc(C(F)(F)F)on3)cs2)c(OC)c1	110
COc1ccccc1NC(=O)Cn1cnc2sc(C(=O)Nc3cc([N+](=O)[O-])ccc3OC)c(C)c2c1=O	106
Cc1ccc(-n2c(SCC(=O)NCCc3ccc(S(N)(=O)=O)cc3)nc3n[nH]c(C)c3c2=N)cc1Cl	101
CCCCOc1ccc(C2CC(=O)C3=C(C2)c2c(ccc4ccccc24)NC3c2ccc(N(CC)CC)cc2)cc1 (stereo not given)	105
COc1cc(OC)cc(C(=O)OCCN(C2=NS(=O)(=O)c3ccccc32)c2ccccc2OC)c1	104
CCC(C)NC(=O)c1ccc(OCc2nnc(C(=O)Nc3ccc(Cl)cc3)s2)cc1 (stereo not given)	102
COc1ccc(NC(=O)C2OC3OC(C)(C)OC3C3OC(C)(C)OC23)cc1Cl (stereo not given)	102
COCc1cc(C)nc2sc(C(O)c3ccccc3)c(NC(=O)c3ccccc3)c12 (stereo not given)	106
CC1CCN(C(=O)C2CCN(c3cnc(N4CCCC4)nc3)CC2)CC1	108
O=C(Cn1ccc2c(SCc3ccccc3)nccc21)NCc1ccc2c(c1)OCO2	113
O=C1CCC(c2ccc(Cl)cc2)=NN1	104
CCC(=O)N1CCN(c2nc(C)cc(N3CCCC3)n2)CC1	105
CC1CCN(c2nc(Cl)nc(NCc3cccnc3)n2)CC1	106
CC(=O)C1=C(C)NC(SCC(=O)c2cc(Cl)ccc2Cl)=C(C#N)C1c1sccc1C (stereo not given)	111
COc1cccc(CSC2=C(C#N)[C@H](c3ccccc3[N+](=O)[O-])C(C(C)=O)=C(C)N2)c1	99
CCC(CC)c1nc(Cn2ccnc2C)no1	103
CCCCCCCNC(=O)C1CCCN(c2ncc(-c3ccc(F)cc3)cn2)C1 (stereo not given)	100
Cc1ccc(NS(=O)(=O)c2cc(-c3nc(C)cs3)cs2)c(Br)c1	98
O=C(NCc1ccnc(N2CCSCC2)c1)Nc1cc(F)ccc1F	100
O=C(CSc1nnc2ccc(-c3ccc4c(c3)OCO4)nn12)N1CCCC1	104
CCC(C)NC(=O)c1nc(-c2ccc(N3CCCC3)cc2)no1 (stereo not given)	107
COc1ccc(C2c3c(-c4ccc(C)cc4)n[nH]c3C(=O)N2c2ccc(F)cc2)c(OC)c1 (stereo not given)	105
O=C(CSc1nc2ccccc2c(=O)n1NS(=O)(=O)c1ccc(Cl)cc1)c1ccccc1	107
O=C(CSc1nnc2c(n1)-c1cccc3cccc-2c13)Nc1ccc([N+](=O)[O-])cc1	113
COc1ccc(Cl)cc1C1Nc2c(C)cc(C)cc2[C@H]2OCCC[C@@H]12 (stereo not given in full)	97
CC(C)c1csc(-c2csc(S(=O)(=O)NCc3ccc(F)cc3)c2)n1	101
O=C(Cn1cc(-c2nc(-c3ccc(Cl)cc3)no2)ccc1=O)Nc1ccc2c(c1)OCO2	99
CC1(C)Oc2ccc(NC(=O)Cc3ccc(F)cc3)cc2O1	109
O=C(NCc1cc(F)ccc1F)c1cc2c(s1)CN(C1CC1)C2	101
O=S(=O)(c1cc(-c2nnc(C3CC3)o2)co1)N1CCOCC1	105
C=CCn1c(=O)c2sc(N(CC)CC)nc2n(CC(=O)Nc2ccc3c(c2)CCC3)c1=O	105
O=S(=O)(NC1CCCCCC1)c1ccc(-c2nnc(C3CCC3)o2)o1	101
CCCCS(=O)(=O)N1CCCC(c2nc(CNC(C)=O)cs2)C1 (stereo not given)	102
Cn1c(=O)c2nc(SCCC(=O)Nc3ccc(Cl)cc3)n(C)c2n(C)c1=O	104
Cc1cc(C)cc(C(=O)N2CCCC(C(=O)NCc3ccc(Cl)cc3)C2)c1 (stereo not given)	102
CCOC(=O)COc1cc(OCC(=O)OCC)c2c3c(c(=O)oc2c1)CCCC3	110
Cc1ccc(-n2cnc3cc(Nc4nnc(C)c5ccccc45)ccc32)cc1	110

New compounds follow
SMILES	GIV Gai3 FP
CCCN1C(=O)c2ccccc2Sc2cc(-c3noc(-c4cnccn4)n3)ccc21	100
CC(Oc1ccccc1)c1nc(-c2ccc3c(c2)ncn3CCC(=O)N2CCCC2)no1 (stereo not given)	104
CN(C1CCCCC1)C1CCN(S(=O)(=O)c2ccc3[nH]c(=O)ccc3c2)CC1	102
CCN(CC)C(=O)c1ccc(-c2nc3cc(NS(=O)(=O)c4ccccc4)ccc3n2C)cc1	100
COC(=O)C(NC(=O)c1ccccc1)(Nc1sc2c(c1C#N)CCC(C)C2)C(F)(F)F (stereo not given)	104
Cc1cccc(C)c1NC(=O)C(Cc1ccccc1)N1C(=O)C2C3c4ccccc4C(c4ccccc43)C2C1=O (stereo not given)	111
CCN(CC)c1ccc(/C=c2/sc3nc(=O)c(C)nn3c2=O)cc1	123
CCN(CC)C(=O)C1CCCN(c2ncnc3c2c(-c2ccccc2)cn3-c2ccccc2)C1 (stereo not given)	103
COc1ccc(OC)c(C2C3=C(CCCC3=O)N(c3ccccc3)C(=N)/C2=C(/O)c2ccccc2)c1 (stereo not given)	114
c1cc2c(cc1Nc1nc(N3CCOCC3)nc(N3CCOCC3)n1)OCO2	114
CCc1ccc(NC(=O)NCc2nnc(C(=O)Nc3ccc(C)cc3)s2)cc1	106
O=C(c1ccc(-n2c(=S)[nH]c3ccccc3c2=O)cc1)N1CCN(Cc2ccc3c(c2)OCO3)CC1	113
CCOCCCNC1=NCCNC12CCCCC2	100
CCOC(=O)C1=C(C)NC2=C(C(=O)C(C(=O)OCC)C(c3ccccc3OC)C2)C1c1cccc([N+](=O)[O-])c1 (stereo not given)	100
COc1ccc(/C(O)=C2\C(=N)N(c3ccc([N+](=O)[O-])cc3C)C3=C(C(=O)CCC3)C2c2ccc3c(c2)OCO3)cc1 (stereo not given)	117

Continued (two carried over from the part before).
SMILES	GIV Gai3 FP
CCOC(=O)C1=C(C)NC2=C(C(=O)C(C(=O)OCC)C(c3ccccc3OC)C2)C1c1cccc([N+](=O)[O-])c1 (stereo not given)	100
COc1ccc(/C(O)=C2\C(=N)N(c3ccc([N+](=O)[O-])cc3C)C3=C(C(=O)CCC3)C2c2ccc3c(c2)OCO3)cc1 (stereo not given)	117
Cc1ccc(S(=O)CC(O)CSc2nc(C)c3c(c2C#N)CCCC3)cc1 (stereo not given)	106
Cc1ccc2c(c1)-c1ccccc1S(=O)(=O)N2S(=O)(=O)c1ccc2ccccc2c1	113
CCOc1cccc2c1OC1(CCCCC1)N1N=C(c3cccnc3)CC21 (stereo not given)	106
CN1CCN(C(=O)c2cc3c(n(-c4ccc(Cl)cc4)c2=O)CC(C)(C)CC3=O)CC1	121
Cn1nc(C(=O)N2CCCC(C(=O)NC3CC3)C2)c2c1CCN(C(=O)c1ccc(F)cc1)C2 (stereo not given)	102
CC1(C)CC(=O)C2=C(C1)c1c(ccc3ccccc13)NC2c1cc(Cl)cc(Cl)c1OCc1ccc(Cl)cc1Cl (stereo not given)	107
CC(=O)N1c2ccccc2N2C(c3c(C)cc(C)cc3C)=NON12	106
O=C(NCCc1nc(-c2ccccc2)n[nH]1)Nc1ccccc1Br	114
Cn1c(=O)n(CC(=O)N2CCN(c3ccccc3F)CC2)c(=O)c2ccccc21	117
CC1=NN(c2cc(S(=O)(=O)O)c3cccc(S(=O)(=O)O)c3c2)C(=O)C1	59*

GIV Gai3 FP: what is marked active above
SMILES	GIV Gai3 FP
CC1=NN(c2cc(S(=O)(=O)O)c3cccc(S(=O)(=O)O)c3c2)C(=O)C1	59*
